Compound activity as filed in PubChem.
RE007 growth inh: less growth of the S. pombe RE007 Vpr strain; 0.21% of 360,000 active; Potency, µM (top dose mostly 92.2 µM), for inactives: at the highest dose activity change, negative = less growth; S. pombe RE007 Vpr strain, BacTiter-Glo ATP luminescence, 24 h; control for the full effect not named in the record; active = well fitted falling curve with a large enough effect; inconclusive = small, poorly fitted or top-dose-only effect; inactive = no such curve, though single readings can be large or run the other way;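 also: % is scaled to controls: 0 for no effect and ±100 for the full control effect; nearly all actives have a fitted effect of over 50% in size; the assay follows cell death caused by Vpr and the record does not say whether a fall means rescue or toxicity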
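Fission yeast strain RE007, carrying one chromosomally integrated HIV-1 vpr copy, was seeded at OD 0.01 in PMG+AL medium with 23 nL pinned compound. After 24 h at 30 °C and 99% humidity, viability was read by BacTiter-Glo luminescence.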
2A StopGo: lowers the luciferase signal of an FMDV 2A StopGo reporter | human cells with a luciferase reporter of 2A StopGo recoding; control for the full effect not named in the record | Potency, µM (top dose mostly 57.9 µM), for inactives: at the highest dose signal change, negative = less light | 1.2% of 410,000 active | AID 1159524; active = well fitted falling curve with a large enough effect; inconclusive = small, poorly fitted or top-dose-only effect; inactive = no such curve, though single readings can be large or run the other way; tested in HEK293T cells; also: % is scaled to controls: 0 for no effect and ±100 for the full control effect; nearly all actives have a fitted effect of over 45% in size; luciferase light after 4 h
LASV entry inh: inhibitors of Lassa virus binding or cell entry; Lassa virus pseudotype entry inhibition, cell reporter; control for the full effect not named in the record; 1.2% of 300,000 active; Potency, µM (titrated, usually from 37.9 µM), for the others: top-dose activity change, negative = inhibition, actives largely listed as inhibitors; AID 540256; active means well fitted inhibition curve with a large enough effect; inconclusive means small, poorly fitted or top-dose-only effect, or effect the other way; inactive means flat fitted curve, though single readings scatter; tested in HEK293 cells; also: % is scaled to controls: 0 for no effect and ±100 for the full control effect; nearly all actives have a fitted effect of over 50% in size; luciferase read-out
Marburg entry inh: Marburg virus entry inhibition. Marburg virus pseudotyped entry inhibition, cell reporter; control for the full effect not named in the record; about a third of the inactives were read at about 46 µM. Potency, µM (titrated, usually from 37.8 µM), without a hit: top-dose activity change, negative = inhibition, most hits filed as inhibitors. 1.8% of 300,000 active; active = well fitted inhibition curve with a large enough effect; inconclusive = small, poorly fitted or top-dose-only effect, or effect the other way; inactive = flat fitted curve, though single readings scatter; tested in HEK293 cells; about a fifth of its hits are not listed in these tables; also: % is scaled to controls: 0 for no effect and ±100 for the full control effect; luciferase read-out
SARS PLpro yeast: inhibitors of SARS-CoV papain-like protease in yeast | S. cerevisiae expressing SARS-CoV PLpro, growth rescue; control for the full effect not named in the record | Potency, µM (doses to about 32.9 µM), for inactives: at the top dose activity, positive = growth rescue | 0.19% of 330,000 active; also: 0% is about no effect; nearly all actives have a fitted effect of over 55% in size; growth read by luminescence after 48 h
NS1 function inh: influenza NS1 inhibition; S. cerevisiae slowed by influenza A NS1, growth recovery by OD600; Potency, µM (highest dose often 46.1 µM), without a hit: top-dose activity, positive = more growth; 0.4% of 270,000 active; AID 2326; also: actives are rising curves; nearly all actives have a fitted effect of over 50% in size
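S. cerevisiae expressing influenza A NS1, grown in glucose, washed, then diluted 1:100 into pH 6.0 -URA galactose medium with 23 nl compound. Growth recovery read as OD600; NS1-free strain serves as control.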
An asterisk follows results filed as active; & = joins results of further samples; [ ] = remark or other dose. Unless noted, calls follow the shape of the dose curve; as a rule, active means well fitted rising curve with a large enough effect; inconclusive means small, poorly fitted or top-dose-only effect; inactive means no such curve, though single readings can be large or run the other way. Potency is read from the fitted curve at half-maximal effect. Not all compounds are listed; count on the stated rates, not on these rows.

`C=CCNC(=O)N1C2=NC(C(=O)OC)=C(C(=O)OC)[C@@H]3N(C)c4ccccc4[C@]23C[C@H]1CO` gave LASV entry inh inconclusive and Marburg entry inh -31%&-10%[14.2 µM].
Screening CC(C)=CCN1C(=O)[C@@]2(CC(C)=CC[C@@H](COc3ccccc3)O2)c2ccccc21 returned LASV entry inh inconclusive and Marburg entry inh 3%[14.2 µM].
`COc1cccc([C@H]2NC(=O)C[C@@H]3C[C@@H](C)[C@@H](c4cccc(OC)c4)N3C(=O)C=CC[C@@H]2C)c1` gave LASV entry inh inconclusive and Marburg entry inh 8%[14.2 µM].
Screening CC(C)[C@@H](OCc1ccccc1)[C@H](C)C=NOC[C@@H](O)[C@H]1O[C@@H]2OC(C)(C)O[C@H]2[C@@H]1O returned LASV entry inh 0%[14.3 µM] and Marburg entry inh -5%[14.2 µM].
CCN(CC)CCCN1C(=O)C2=C(C1=O)C1N(C)c3ccccc3[C@@]13C[C@@H](CO)N(C(=O)CCC(=O)OC)C3=N2 (stereo partly drawn) was read as LASV entry inh inconclusive and Marburg entry inh 7%[14.2 µM].
Screening O=C(C=Cc1ccccc1)c1ccccc1O returned LASV entry inh -8%[14.3 µM] and Marburg entry inh inconclusive.
Screening CCN1C(=O)NC(c2cccc(C(F)(F)F)c2)C(C(C)=O)=C1C (stereo not drawn) returned LASV entry inh inconclusive and Marburg entry inh 12%[14.2 µM].
Screening C=C(CCN1C=C(C(=O)OCC)C(c2ccccc2)NC1=O)OC (stereo not drawn) returned LASV entry inh inconclusive and Marburg entry inh inconclusive.
Screening Nc1nc2c(nc(Br)n2C2OC3COP(=O)(O)O[C@@H]3C2O)c(=O)[nH]1 (stereo partly drawn) returned LASV entry inh -7% and Marburg entry inh inconclusive.
`CC(C)=CCCC(C)=CCN1C(=O)[C@]2(OCCC=C[C@H]2C)c2ccccc21` gave LASV entry inh inconclusive and Marburg entry inh 3%[14.2 µM].
`O=C1CCCC=C1C(CCc1ccccc1)OC(=O)c1ccc(Br)cc1` (stereo not drawn) gave LASV entry inh inconclusive and Marburg entry inh inconclusive.
Screening COC(=O)CC=C[C@@H](C)[C@@H](C=NOCC[C@@H]1C=C[C@H](OC(C)=O)[C@@H](COC(C)=O)O1)NS(=O)(=O)c1ccc(C)cc1 returned LASV entry inh inconclusive and Marburg entry inh inconclusive.
For CCN1C(=O)[C@@H]2[C@H]3[C@H](O)[C@H](O)CC(=NNC(=O)OCc4ccccc4)[C@@H]3CC[C@H]2C1=O the results were LASV entry inh inconclusive and Marburg entry inh -8%[14.2 µM].
C=C(CO)CC1CC(O)[C@]2(C)OC3CC4OC5C[C@]6(C)O[C@]7(C)CCC8OC9C[C@]%10(C)OC%11C(C)=CC(=O)OC%11CC%10OC9C[C@@H](C)C8OC7CC6O[C@]5(C)C/C=C\C4OC3CC2O1 (stereo partly drawn) was read as RE007 growth inh -3%, SARS PLpro yeast 0% and NS1 function inh 4%.
Screening COc1cccc(CN2CCc3nnc(CCc4ccccc4)n3CC2)c1OC returned 2A StopGo -6%.
Screening Cc1ccc2c(C)nc(N3CCCC(C(=O)NC(C)(C)CO)C3)nc2c1 (stereo not drawn) returned 2A StopGo -18%.
Screening COCC(=O)Nc1cc(C(=O)N2CCSCC2)cc2nc(-c3ccccc3)n(C)c12 returned 2A StopGo -26%.
For Cc1cc(C)nc(-c2cccc3c2OC(CNC(=O)c2ccc(Cn4nc(C)cc4C)cc2)C3)n1 (stereo not drawn) the results were 2A StopGo -9%.
Screening O=C(NCC1Cc2cc(F)cc(-c3cnccn3)c2O1)c1cccc(-c2ccccc2F)c1 (stereo not drawn) returned 2A StopGo 0%.
COc1cccc(-c2nc3cc(SC)ccc3cc2CN(C(=O)c2csc(C)n2)C2CC2)c1 was read as 2A StopGo 28µM*.

The final 4 records of the section above come first, to join the parts.
Screening COCC(=O)Nc1cc(C(=O)N2CCSCC2)cc2nc(-c3ccccc3)n(C)c12 returned 2A StopGo -26%.
For Cc1cc(C)nc(-c2cccc3c2OC(CNC(=O)c2ccc(Cn4nc(C)cc4C)cc2)C3)n1 (stereo not drawn) the results were 2A StopGo -9%.
Screening O=C(NCC1Cc2cc(F)cc(-c3cnccn3)c2O1)c1cccc(-c2ccccc2F)c1 (stereo not drawn) returned 2A StopGo 0%.
COc1cccc(-c2nc3cc(SC)ccc3cc2CN(C(=O)c2csc(C)n2)C2CC2)c1 was read as 2A StopGo 28µM*.
CC(C)C(NC(=O)c1ccoc1)c1nnc2n1CCN(C(=O)/C=C/c1ccc(F)cc1)CC2 (stereo not drawn) was read as 2A StopGo -6%.
COC(=O)c1ccc(-c2cccc3c2OC(CNC(=O)c2ccc4c(c2)OCCO4)C3)nc1 (stereo not drawn) was read as 2A StopGo 11%.
Screening O=C(/C=C/c1ccccn1)NCC1Cc2cccc(-c3ncccn3)c2O1 (stereo not drawn) returned 2A StopGo -13%.
`CC(C)Cc1nc2cc(NS(=O)(=O)N(C)C)cc(C(=O)N3CCN(c4ccccc4)CC3)c2n1C` gave 2A StopGo 10%.
For COCC(=O)Nc1cc(C(=O)N2CCCC(C(C)=O)C2)cc2nc(-c3ccccc3)n(C)c12 (stereo not drawn) the results were 2A StopGo -8%.
For CC[C@H]1OC(=O)[C@H](C)C(=O)[C@H](C)[C@@H](O[C@@H]2O[C@H](C)C[C@H](N(C)C)[C@H]2O)[C@](C)(OC)C[C@@H](C)C(=O)[C@H](C)[C@H]2N(CCCCn3cnc(-c4cccnc4)c3)C(=O)O[C@]12C the results were 2A StopGo -10%.
Screening COc1cccc(C(=O)NCc2nc(-c3cccc(NC(=O)c4ccoc4C)c3)oc2C)c1 returned 2A StopGo inconclusive.
For COCC(=O)Nc1cc(C(=O)N2CC3CC4CC(C3)CC2C4)c2c(c1)nc(-c1ccncc1)n2C the results were 2A StopGo -4%.
`O=C(O)c1ccncc1` gave 2A StopGo -11%.
For CC(=O)c1ccc(F)c(-c2cc(C)cc3c2OC(CNC(=O)C[C@@H]2C[C@@H](C)NC(=S)N2)C3)c1 (stereo partly drawn) the results were 2A StopGo -9%.
For Cc1nc(N)c2c(Cc3cccc4ccccc34)nn(C(C)(C)C)c2n1 the results were 2A StopGo -26%.
`CCC1(C2CCN(C(=O)c3csc(C(C)=O)c3)CC2)NC(=O)N(CCc2scnc2C)C1=O` (stereo not drawn) gave 2A StopGo 6%.
For COC(=O)C1CCN(Cc2ccc3c(c2)CN(C(=O)c2cc4cc(F)ccc4[nH]2)CCO3)CC1 the results were 2A StopGo -22%.
N=C(CC(O)COc1ccccc1-c1ccccc1)N1CCCCC1 (stereo not drawn) was read as 2A StopGo -17%.
Screening CCCCCCCCCCCCC/C=C/[C@@H](O)[C@H](CO)NC(C)=O returned 2A StopGo -5%[6.7 µM].
Screening CCC1(C2CCN(Cc3cccc4ccccc34)CC2)NC(=O)N(Cc2ccc3c(c2)OCO3)C1=O (stereo not drawn) returned 2A StopGo -2%.
Screening c1cncc(OC2CCN(Cc3ccc4c(c3)CN(Cc3nc5ccccc5s3)CCO4)CC2)c1 returned 2A StopGo 14%.
`C[C@H](NC(=O)[C@@H](N)Cc1ccc(O)cc1)C(=O)N[C@@H](Cc1ccccc1)C(=O)N[C@@H](Cc1ccccc1)C(N)=O` gave 2A StopGo 7%[6.7 µM].
Screening CCOC(=O)C12CC1/C(=N\O)c1ccccc1O2 (stereo not drawn) returned 2A StopGo 6%.
For CCC1(C2CCN(C(=O)c3cccc(F)c3F)CC2)NC(=O)N(CCc2scnc2C)C1=O (stereo not drawn) the results were 2A StopGo 7%.
For CC(=Nc1ccccc1N)c1c(C)cc(=O)n(O)c1O the results were 2A StopGo 21%.
For CCO[C@H]1[C@H](NC(=O)c2cccnc2)c2ccccc2C12CCN(C(=O)c1ccoc1)CC2 the results were 2A StopGo -6%.
Screening OC1(c2cccnc2)CCN(Cc2ccc3c(c2)CN(Cc2cc(F)cc(F)c2)CCO3)CC1 returned 2A StopGo -28%.
COC(=O)c1cc(CNC(=O)c2ccc3ncccc3c2)cc(NC(=O)c2ccccc2Cl)c1 was read as 2A StopGo 3%.
`NC(C(=O)O)C(CC(=O)O)c1ccc(Cl)cc1` (stereo not drawn) gave 2A StopGo -7%.
Screening CCC1CN(CCNC(=O)c2cccc(C)n2)Cc2cc(OC)ccc2O1 (stereo not drawn) returned 2A StopGo -4%.
`CCCCN(CCCNC(=S)NCCCc1cnc[nH]1)c1ccc(Br)cn1` gave 2A StopGo 0%.
For COCC1CCCN(Cc2ccc3c(c2)CN(C(=O)c2cn4ccc(C)cc4n2)CCO3)C1 (stereo not drawn) the results were 2A StopGo -4%.
`COc1ccc2cc(CN(C(=O)c3cc(C)nn3C)C3CC3)c(-c3ccc(Cl)cc3)nc2c1` gave 2A StopGo -19%.
COc1oc(=O)c2cc(N)ccc2c1Cl was read as 2A StopGo 0%.
Screening Cc1ccccc1C1(CC(=O)N2CCOCC2)CC(=O)N(Cc2cccnc2)C1=O (stereo not drawn) returned 2A StopGo -13%.
CCC1CN(Cc2c(C)nc3sccn23)Cc2cc(OC)ccc2O1 (stereo not drawn) was read as 2A StopGo -10%.
Screening CC(=O)OCOC(c1ccc2ccccc2c1)P(=O)(OCOC(C)=O)OCOC(C)=O (stereo not drawn) returned 2A StopGo -8%.
`Cn1c(SCc2ccccc2)nnc1C1CCCN(Cc2cccc3ncccc23)C1` (stereo not drawn) gave 2A StopGo -11%.
`COc1ccc(OC)c(NC(=O)c2ccccc2OC(C)=O)c1` gave 2A StopGo 0%.
`c1ccc(C(O[C@H]2CCCN(CCc3ccc4c(c3)OCO4)C2)c2ccccc2)cc1` gave 2A StopGo -24%.
For Nc1ncnc2c1ncn2[C@H]1O[C@@H](CSCC[C@@H](N)C(=O)O)[C@H](O)[C@@H]1O the results were 2A StopGo 7%.
`COc1ccc2c(c1)-c1nc(-n3ncc(C(=O)NCc4cccnc4)c3C3CC3)ncc1CC2` gave 2A StopGo inconclusive.
O=C(NCC1Cc2cccc(-c3cccnc3)c2O1)c1cc(-c2ccccc2)n[nH]1 (stereo not drawn) was read as 2A StopGo -13%.
For Cc1ccc(C(C)CCN2CCOc3ccc(CN4CCOCC4)cc3C2)o1 (stereo not drawn) the results were 2A StopGo -8%.
For COc1cc(=O)n2c(c1C(=O)NCc1ccco1)CCN(Cc1cc3ccccc3[nH]1)CC2 the results were 2A StopGo -11%.
For COC(=O)[C@@H]1CCCN1Cc1ccc2c(c1)CN(Cc1ccccc1F)CCO2 the results were 2A StopGo -3%.
For Nc1c(S(=O)(=O)O)cc(Nc2ccc(Cl)cc2)c2c1C(=O)c1ccccc1C2=O the results were 2A StopGo -18%.
`Cc1ccccc1C1(CC(=O)N2CCCC(C)C2)CC(=O)N(Cc2cccnc2)C1=O` (stereo not drawn) gave 2A StopGo 6%.
Screening Cc1ncc2c(c1CNS(=O)(=O)N(C)C)CCN(C(=O)/C=C/c1ccccc1)C2 returned 2A StopGo 8%.
For CC(=O)Nc1ccccc1-c1nc(CNC(=O)c2ccc(-c3ccccc3F)cc2)c(C)o1 the results were 2A StopGo 16%.
COc1cc(=O)n2c(c1C(=O)N(C)Cc1nccs1)CCN(Cc1ccc(Cl)cc1)CC2 was read as 2A StopGo -7%.
Cc1cc(C(=O)NCc2nnc3n2CCN(Cc2ccc(C)c(C)c2)CC3)c(C)o1 was read as 2A StopGo -11%.
